Source: PubChem BioAssay
Sfp inh – Sfp phosphopantetheinyl transferase inhibition; Q9F4F7; Biochemical Sfp PPTase activity, qHTS; Potency, µM, for the others: max response, negative = inhibition, most hits filed as inhibitors; hit rate 3.5% among 310,000; AID 1490; active = well fitted inhibition curve with a large enough effect; inconclusive = small, poorly fitted or top-dose-only effect, or another doubt; inactive = no such curve, though single readings can be large or run the other way;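 note: the enzyme is Sfp with the accession as filed and its product quenches rhodamine fluorescence; potency is the fitted concentration of half-maximal effect; 0% = enzyme reaction without inhibitor and -100% = no enzyme wells; top concentration of the series not given in the record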
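With Hepes-Na pH 7.6 buffer containing 10 mM MgCl2, Sfp (15 nM) modified BHQ-2-YbbR (12.5 uM) using rhodamine-CoA (5 uM). Two reads 30 minutes apart at 525/598 nm yielded each well's rate.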
TRPML1 agonist – human mucolipin-1 channel agonism | Q9GZU1 | activation, % (test concentration not listed) | hit rate 0.12% among 410,000 | TRPML1-expressing cells, Ca2+ dye fluorescence, FDSS; host cell line not named in the record; reference of the full effect not given here | AID 624414; in the data active = activation above about 50%; inconclusive = about 30% to 50%; inactive = below about 30%; note: 0% is about no effect; the text of the record puts the active cut at 80%
Target sequence (Q9GZU1 whole entry, looked up): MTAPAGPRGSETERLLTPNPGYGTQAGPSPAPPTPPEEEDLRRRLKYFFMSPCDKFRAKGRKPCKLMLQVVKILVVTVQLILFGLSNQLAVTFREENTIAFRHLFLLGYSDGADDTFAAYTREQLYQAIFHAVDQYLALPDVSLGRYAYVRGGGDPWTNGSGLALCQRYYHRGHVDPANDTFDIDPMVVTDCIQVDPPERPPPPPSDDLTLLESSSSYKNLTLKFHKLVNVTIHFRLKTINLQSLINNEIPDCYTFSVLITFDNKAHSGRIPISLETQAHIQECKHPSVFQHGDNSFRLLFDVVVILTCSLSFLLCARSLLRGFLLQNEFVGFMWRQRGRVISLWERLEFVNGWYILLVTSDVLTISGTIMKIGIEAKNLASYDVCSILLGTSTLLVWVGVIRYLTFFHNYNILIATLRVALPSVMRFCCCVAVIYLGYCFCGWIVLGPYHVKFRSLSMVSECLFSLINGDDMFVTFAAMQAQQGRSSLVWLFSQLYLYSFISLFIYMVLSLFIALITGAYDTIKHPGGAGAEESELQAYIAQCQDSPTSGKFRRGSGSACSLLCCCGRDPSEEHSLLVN
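In this qHTS format, compounds were pin-transferred onto Ca8-dye-loaded TRPML1-DL cells induced with Tet overnight, and intracellular Ca2+ fluorescence was recorded kinetically for 110 s after a 10 s baseline. A subsequent 4uM final 54-4 (EC80) addition followed by a second 110 s read served as the antagonist phase.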
TRPV1 potentiator – potentiators of human vanilloid receptor 1 (TRPV1) | Q8NER1 | TRPV1-expressing cells, Fluo-8 calcium influx, capsaicin EC20 potentiation; host cell line not named in the record; control for the full effect not named in the record | potentiation, % at 8.33 µM | hit rate 0.02% among 320,000 | AID 540277; active means potentiation above 80%; inconclusive means 30% to 80%; inactive means below 30%; note: 0% is about no effect
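TRPV1-expressing cells were cultured overnight at 35.5C and loaded with Fluo-8 calcium dye for 40 to 90 min at room temperature. After a 10 s baseline, compound was added and calcium influx was read kinetically for 3 min (ex 480/em 520 nm).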
PINK1 expr mod – modulators of PINK1 expression. PINK1 immunofluorescence, high-content cytometry, 24 h. Potency, µM (top dose mostly 76.6 µM), inactives show at the highest dose activation (PINK1 increase), hits mostly activators. hit rate 0.2% among 410,000. AID 624263; active = well fitted activation curve with a large enough effect; inconclusive = small, poorly fitted or top-dose-only effect; inactive = flat fitted curve, though single readings scatter; cell line not stated here;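 note: potency is the fitted concentration of half-maximal effect; % of control where 0% means no effect; nearly all actives have a fitted effect of over 65% in size; a mitochondrial uncoupler was the plate control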
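A stable cell line was treated with compounds at 5 concentrations for 24 hours, with CCCP as control. PINK1 levels and mitochondrial localization were measured by immunofluorescence with mitochondrial, cell and nuclear markers after fixation, read by laser-scanning cytometry.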
ClpP mod – qHTS Assay for Activators of ClpP | Potency, µM (highest dose often 57.5 µM), for the others: at the highest dose activity change, negative = active | hit rate 1.9% among 340,000 | purified B. subtilis ClpP, FRET peptide cleavage, 20 min; active = well fitted falling curve with a large enough effect; inconclusive = small, poorly fitted or top-dose-only effect; inactive = no such curve, though single readings can be large or run the other way; note: potency is the fitted concentration of half-maximal effect; the source files actives as falling curves though it sought activators and does not explain the sign; nearly all actives have a fitted effect of over 65% in size; many hits overshoot -100%
Target sequence (P80244 whole entry, looked up): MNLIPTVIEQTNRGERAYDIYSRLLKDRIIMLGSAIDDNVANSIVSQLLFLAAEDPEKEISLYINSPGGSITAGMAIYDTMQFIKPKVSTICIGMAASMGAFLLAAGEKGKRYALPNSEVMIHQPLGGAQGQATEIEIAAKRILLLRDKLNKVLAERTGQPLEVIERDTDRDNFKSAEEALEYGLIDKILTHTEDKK
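Purified B. subtilis ClpP, 10 microg/mL final in Tris/HCl pH8 with KCl, BSA, glycerol and Tween-20, cleaved an Abz/nitrotyrosine-quenched decapeptide. Fluorescence (ex 320, em 430) was read at 0 and 20 min at room temperature. Delta was normalized to 5.8 microM ADEP and DMSO/no-enzyme controls.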
Menin-MLL FL inh – inhibitors of human menin-MLL interaction, wild-type MLL peptide; 290,000 tested, under 10 active; Fluorescence polarization, fluorescein-MLL peptide displacement from menin; FP activity change, % at 61.4 µM; inconclusive = falling polarisation curve, or a change in total fluorescence; inactive = total fluorescence flat and polarisation flat or rising; no compound was filed as active; the % refers to the polarisation; negative = inhibition;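 note: % of control where 0% means no effect; inhibitors lower the polarisation; unlabelled MLL peptide was the positive control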
TRPML1 inh – inhibitors of human TRPML1 channel. activity change, negative = inhibition, % (test concentration not listed). hit rate 0.02% among 390,000. TRPML1-inducible cells, Ca2+ dye fluorescence, FDSS; hits give low values; inhibition of EC80 agonist-evoked calcium signal. Q9GZU1; in the data active means activity change below about -50%; inconclusive means about -30% to -50%; inactive means above about -30%;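 note: stimulus is agonist 54-4 at its EC80 concentration; % is set by controls: 0 for no effect and ±100 for the full control effect; compound concentration not given in the record; the text of the record puts the active cut at -80%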
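Calcium fluorescence in TRPML1-DL cells induced overnight with Tet: a 110 s read after compound pin addition, then a 110 s antagonist read after challenge with 54-4 at 4 uM final (EC80).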
Active calls of the source: *; ? = inconclusive; . = no result given; & = joins results of further samples; [ ] = remark or other dose.

SMILES | Sfp inh | TRPML1 agonist | TRPV1 potentiator | PINK1 expr mod | ClpP mod | Menin-MLL FL inh | TRPML1 inh
CCOC(=O)c1c2c3c(c(Cl)ccc3[nH]c1=O)C(=O)c1ccccc1-2 | 11% | 0.6 | 7 | 0.6% | . | ? | -5
COCCNC(=O)CN(C(=O)Cn1nnc2ccccc21)c1ccc(F)c(Cl)c1 | -10% | 0.1 | -3 | 5.1% | 0.3% | -0.8 | -13
COc1ccccc1N(CN1C(=O)c2ccccc2C1=O)C(=O)c1cccnc1 | -4% | 0.6 | -4 | 24%[38.3 µM] | -0.8% | -0.1 | -4
C[C@@H]1COc2cccc(N3CCC[C@H]3CO)c2S(=O)(=O)N1 | . | -0.7 | . | 0.3% | 0.4% | . | .
O=C1NC(C2CC3C=CC2C3)Nc2ccccc21 (stereo not given) | . | -0.6 | . | -0.3% | 4.5% | . | 27
COC(=O)CN1C(c2ccc(OC)cc2)=Nc2ccc(Cl)cc2C1c1ccccc1 (stereo not given) | -8% | 8.4 | -11 | ? | -0.8% | -0.4 | 57
COCCN1C(=O)C(=O)/C(=C(/O)c2ccc(S(=O)(=O)N3CCOCC3)cc2)C1c1ccc(O)cc1 (stereo not given) | ? | 1.6 | -12 | 0.4% | . | -3.4 | 4
Cc1c(O)ccc2c(CN3CCN(CCO)CC3)cc(=O)oc12 | -2% | 0.0 | 2 | -1.1% | ? | 0.4 | -11
CCCCCCSc1cccc(-c2nc3ccc(C)cn3c2NCc2ccccc2)c1 | . | -0.1 | 6 | 25µM* | 4.5% | . | 1
O=C(COc1ccc(Cl)cc1[N+](=O)[O-])N1CCCCCC1 | -4% | 0.5 | -14 | 1.1% | . | 5.8 | -14
Cc1cccc(NC(=O)CSc2nc(=O)n(CCN3CCOCC3)c3c2CCCC3)c1C | . | -0.8 | -4 | 2.6% | . | . | -2
CCOc1cccc(C(=O)Nc2ccc3oc(Cc4ccc(Cl)cc4)nc3c2)c1 | 27% | -0.9 | 7 | 0.1% | -6.8% | 2.4 | 8
COC(C(=O)Nc1ccc(NC(=O)C(OC)c2ccccc2)cc1)c1ccccc1 (stereo not given) | 20% | 3.9 | 0 | 3.7% | . | -2.0 | 7
CC(NC(=O)CN1CCN(c2ccc(Cl)cc2)CC1)c1ccccc1 (stereo not given) | 6% | 1.1 | 20 | -0.3% | 0.0% | 1.0 | 0
CC(Sc1c[nH]c2ccccc12)C(=O)O (stereo not given) | -7% | -0.3 | 6 | -1.1%[38.3 µM] | -0.7% | 0.6 | 14
O=C1C2ON(c3ccccc3)C(c3cccnc3)C2C(=O)N1c1ccc(Cl)c(Cl)c1 (stereo not given) | -8% | 1.1 | 23 | 11%[38.3 µM] | -0.2% | -0.6 | -3
Cc1cccc(NC(NC(=O)c2cccnc2)C(Cl)(Cl)Cl)c1 (stereo not given) | 11% | 0.4 | . | -1.4% | -0.9% | -2.1 | -4
Cc1ccc(-c2nnn(CC(=O)N(CCN3CCOCC3)C(C(=O)NC3CCCC3)c3ccncc3)n2)o1 (stereo not given) | -4% | -0.4 | 3 | 2.8% | -0.3% | -0.5 | -15
CCOC(=O)N1CCN(C(=O)c2cnn(-c3cccc(F)c3)c2-n2cccc2)CC1 | . | 1.9 | . | -0.7% | -0.1% | . | -5
CCc1ccc2nc3sc(C(=O)O)cc3cc2c1 | 0% | -0.1 | -4 | -0.7% | . | 2.5 | -2
Cc1cc(C)nc(-n2nc(C)c3c(C(=O)O)cc(-c4cccc(Br)c4)nc32)n1 | 12% | -0.1 | 3 | 1.2% | 3.5% | -0.8 | 25
COc1ccc(Br)cc1CN(C)C(=O)Cc1ccc(S(=O)(=O)N2CCOCC2)s1 | . | 0.0 | 10 | -0.7% | -2.7% | . | -3
COc1ccc(CN(C(=O)CN2C(=O)COc3ccccc32)C2CCCC2)c(OC)c1 | 14% | 1.4 | -5 | ? | 5.0% | 2.2 | -5
Cc1c(C)[n+](=O)c(-c2ccc(F)cc2)c(C)n1[O-] | 9% | 0.6 | 8 | 1.7% | -1.1% | 2.1 | -5
CSCCC1NC2(C(=O)Nc3c2ccc(Cl)c3C)[C@@H]2C(=O)N(C3CCCC3)C(=O)[C@H]12 (stereo not given in full) | -2% | -0.3 | -22 | 3.8%[38.3 µM] | -0.4% | 1.7 | -3
COc1cc(C(=S)N2CCOCC2)cc(OC)c1OC(=O)c1ccc(C)cc1 | 14% | 1.9 | ? | 3.4% | -2.8% | 2.9 | -21
Cc1c(O)ccc(C(=O)COc2ccccc2F)c1O | 11% | 1.9 | 23 | . | -4.4% | 3.9 | 13
Cc1cccc(NC(=O)c2cc3c(s2)-c2c(C)cccc2OC3)n1 | -13% | -0.6 | 11 | 3.8% | 4.5% | 7.4 | 39
COc1ccc(CCNC(=O)c2ccc(N(C)S(=O)(=O)c3ccc(C)cc3)cc2)cc1 | 13% | -1.2 | 10 | 1.4% | 0.0% | -0.3 | 13
CC(=O)Nc1cc(C)ns1 | . | 0.1 | . | 0.4% | 1.4% | . | -14
CN(C)S(=O)(=O)c1cccc(C(=O)OCC(=O)NC2CCCc3ccccc32)c1 (stereo not given) | 6% | -0.2 | -9 | -1.0% | -1.3% | -1.9 | -1
O=C(C[C@H]1C/C=C\CC[C@H](Cc2ccc(F)cc2)C(=O)OC[C@H]2CCCN2C1=O)N[C@H](CO)Cc1ccccc1 | . | 3.2 | . | 0.4% | 0.4% | . | -2
CCC1CCC/C1=N\NC(=O)c1ccccc1C (stereo not given) | . | -0.6 | . | -0.3% | -1.2% | . | 13
COc1cc(OC)c(C2=NOC(C(=O)NCc3cccs3)C2)cc1Cl (stereo not given) | 22% | 2.3 | 14 | 6.4% | . | -0.7 | -4
Cc1[nH]ncc1Nc1c(C(C)C)cccc1C(C)C | . | 26 | . | 4.6% | 1.2% | . | .
CCOc1ccc(C(=O)N(Cc2ccccc2)c2cccc(C)c2)cc1OC | 3% | 3.7 | 25 | 1.3% | -2.6% | . | 7
CCOC(=O)c1ccc(S(=O)(=O)N2CCN(CCc3ccncc3)CC2)cc1 | . | -0.1 | . | 0.2% | -3.0% | . | 7
CC(=O)C1=C(O)C(=O)N(Cc2ccccc2)C1c1ccc(Cl)cc1 (stereo not given) | 11% | 0.4 | 13 | 7.2% | . | -1.2 | 9
CCCCCOC(=O)Nc1ccc(S(=O)(=O)Nn2cnnc2)cc1 | -12% | -0.5 | 0 | -0.7%[38.3 µM] | 0.5% | 2.5 | -19
CCOC(=O)c1nc(N/N=C/c2ccccc2)sc1Br | -9% | 0.2 | -3 | ? | . | 1.0 | -7
CCOC(=O)C1=C(c2ccccc2)NC(=O)NC1c1cc(OC)c(O)c([N+](=O)[O-])c1 (stereo not given) | 21% | . | 21 | -0.2% | 0.9% | 1.6 | .
COC(=O)Cc1c(C)nc2nc(-c3ccc(C)cc3)[nH]n2c1=O | 16% | -0.5&-0.9 | 25 | -1.4%&1.7% | -29%&-9.9% | 2.6 | 0&14
O=c1oc2ccccc2n1CSc1nc2ccccc2s1 | -9% | 0.8 | -12 | 0.8% | -1.7% | 0.2 | -1
CCCCOc1ccc(C(=O)OC(C)CN(C)C)cc1 (stereo not given) | 5% | 0.1 | 8 | 19%[38.3 µM] | -2.4% | 11 | 19
Cc1ccccc1S(=O)(=O)NC(=O)C1(C)CCN1C(=O)CC1CCCC1 (stereo not given) | . | -0.2 | . | 2.6% | -0.6% | . | .
CCN(CC)CCCN1C(=O)C(O)=C(C(=O)c2cc3cccc(OC)c3o2)C1c1ccncc1 (stereo not given) | 16% | -0.4 | -9 | ? | 0.2% | 4.2 | -4
O=C(Nc1ccncc1)c1cccc(S(=O)(=O)N2CCOCC2)c1 | . | 0.1 | -1 | -0.3% | 0.7% | . | 13
N#C/C(=C\c1ccccc1)C(=O)NC(=O)Oc1ccccc1 | 8% | -0.6 | -6 | -2.1% | -1.7% | 5.9 | 15
Cc1n[nH]c(=O)c2c(NC(=O)CSc3nnnn3-c3ccccc3)oc(C)c12 | . | -0.2 | 6 | -2.0% | -8.2% | . | 9
COc1ccccc1NC(=O)Cn1nnc(-c2ccccc2NC(=O)c2cccs2)n1 | 50µM* | 0.0 | 0 | 11% | 131% | 4.6 | -1

4 of the compounds above, as tab-separated lines:
mol	Sfp inh	TRPML1 agonist	TRPV1 potentiator	PINK1 expr mod	ClpP mod	Menin-MLL FL inh	TRPML1 inh
CCCCOc1ccc(C(=O)OC(C)CN(C)C)cc1 (stereo not given)	5%	0.1	8	19%[38.3 µM]	-2.4%	11	19
Cc1ccccc1S(=O)(=O)NC(=O)C1(C)CCN1C(=O)CC1CCCC1 (stereo not given)	.	-0.2	.	2.6%	-0.6%	.	.
O=c1oc2ccccc2n1CSc1nc2ccccc2s1	-9%	0.8	-12	0.8%	-1.7%	0.2	-1
Cc1n[nH]c(=O)c2c(NC(=O)CSc3nnnn3-c3ccccc3)oc(C)c12	.	-0.2	6	-2.0%	-8.2%	.	9

Later entries:
SMILES | Sfp inh | TRPML1 agonist | TRPV1 potentiator | PINK1 expr mod | ClpP mod | Menin-MLL FL inh | TRPML1 inh
C/C(=N\Nc1ccc(C#N)cc1[N+](=O)[O-])c1ccc(O)cc1 | -7% | 3.6 | ? | -0.1% | -1.5% | 3.6 | 22
CCOc1ccc(Br)cc1C(=O)N/N=C/c1c[nH]c2ccccc12 | 8% | 0.3 | 3 | 3.2% | 89% | 0.0 | 25
OC(COc1ccc2cc(Br)ccc2c1)CN1CCN(c2ccccn2)CC1 (stereo not given) | -6% | 0.6 | -3 | 0.2% | -0.3% | 1.6 | 9
O=C(CN1CCN(c2ccc(O)cc2)CC1)NCC(=O)Nc1ccc(F)c(F)c1F | . | -0.5 | 0 | -1.1% | -4.5% | . | 4
Cc1ccnc(N2C(=O)c3ccccc3C2=O)c1 | 2% | -0.9 | 4 | 2.0% | -2.5% | 3.2 | 0
C=C(C)C(=O)Nc1ccc2nn(-c3ccccc3O)nc2c1 | . | 0.2 | . | 2.6% | 0.8% | . | 5
COc1ccc2[nH]cc(CCNc3ncncc3-c3ccccc3C(F)(F)F)c2c1 | -7% | . | . | 0.7% | . | 0.1 | .
